Screening results deposited in PubChem by National Center for Advancing Translational Sciences (NCATS).
ClpP mod = qHTS Assay for Activators of ClpP; purified B. subtilis ClpP, FRET peptide cleavage, 20 min; ATP-dependent Clp protease proteolytic subunit (Bacillus subtilis (strain 168)), P80244; Potency, µM (top dose mostly 57.5 µM), for the others: top-dose activity change, negative = active; AID 651965, 2013; actives 1.9% (n = 340,000); active = well fitted falling curve with a large enough effect; inconclusive = small, poorly fitted or top-dose-only effect; inactive = no such curve, though single readings can be large or run the other way; further: potency means the concentration at half of the fitted maximal effect; the source files actives as falling curves though it sought activators and does not explain the sign; nearly all actives have a fitted effect of over 65% in size; many hits overshoot -100%
Target sequence (P80244 whole entry, looked up): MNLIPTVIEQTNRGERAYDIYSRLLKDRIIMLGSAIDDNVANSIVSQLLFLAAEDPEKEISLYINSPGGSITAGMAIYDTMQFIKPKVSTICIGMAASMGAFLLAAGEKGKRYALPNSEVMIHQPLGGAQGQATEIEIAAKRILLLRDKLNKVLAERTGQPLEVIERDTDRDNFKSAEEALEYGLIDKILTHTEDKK
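Purified B. subtilis ClpP, 10 microg/mL final in Tris/HCl pH8 with KCl, BSA, glycerol and Tween-20, cleaved an Abz/nitrotyrosine-quenched decapeptide. Fluorescence (ex 320, em 430) was read at 0 and 20 min at room temperature. Delta was normalized to 5.8 microM ADEP and DMSO/no-enzyme controls.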
Sfp PPTase inh = blocks B. subtilis Sfp PPTase activity; Biochemical Sfp PPTase activity, qHTS; Potency, µM, inactives show max response, negative = inhibition, hits mostly inhibitors; actives 3.5% (n = 310,000); AID 1490; active means well fitted inhibition curve with a large enough effect; inconclusive means small, poorly fitted or top-dose-only effect, or another doubt; inactive means no such curve, though single readings can be large or run the other way;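 further: the enzyme is Sfp with the accession as filed and its product quenches rhodamine fluorescence; potency means the concentration at half of the fitted maximal effect; 0% = enzyme reaction without inhibitor and -100% = no enzyme wells; top concentration of the series not given in the record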
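Sfp 15 nM + cpd, 15 min RT; start w/ rhodamine-CoA 5 uM, BHQ-2-YbbR 12.5 uM (final); 50 mM Hepes pH 7.6, 10 mM MgCl2, 0.01% NP-40, 0.01% BSA; read 525/598 nm at 0 and 30 min.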
gsp ag = gsp mutant agonism; gsp mutant cells, cAMP HTRF, 30 min; control for the full effect not named in the record; Potency, µM (doses to about 76.9 µM), inactives show at the highest dose activation (cAMP increase), actives largely listed as activators; actives 0.13% (n = 340,000); active = well fitted activation curve with a large enough effect; inconclusive = small, poorly fitted or top-dose-only effect, or another doubt; inactive = no such curve, though single readings can be large or run the other way; cell line not stated here;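 further: phosphodiesterase inhibitor Ro 20-1724 added with compounds to block cAMP breakdown; potency means the concentration at half of the fitted maximal effect; nearly all actives have a fitted effect of over 60% in size; about a fifth of the inactives were tested at one dose only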
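Cells stably selected in G418 were plated at 2000/well, grown 16-24 hr, then given compounds in DMSO with the PDE inhibitor […] (300 uM solution added) for 30 min at 37C; cAMP was read by HTRF.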
Menin-MLL FL inh = displaces fluorescein MLL peptide from human menin | AID 1766 | Fluorescence polarization, fluorescein-MLL peptide displacement from menin | 290,000 tested, under 10 active | FP activity change, % at 61.4 µM; inconclusive = falling polarisation curve, or a change in total fluorescence; inactive = total fluorescence flat and polarisation flat or rising; no compound was filed as active; the % refers to the polarisation; negative = inhibition;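 further: % of control where 0% means no effect; inhibitors lower the polarisation; unlabelled MLL peptide was the positive control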
TRPV1 potentiator = potentiators of human vanilloid receptor 1 (TRPV1) | TRPV1-expressing cells, Fluo-8 calcium influx, capsaicin EC20 potentiation; host cell line not named in the record; control for the full effect not named in the record | Q8NER1 | potentiation, % at 8.33 µM | actives 0.02% (n = 320,000); active means potentiation above 80%; inconclusive means 30% to 80%; inactive means below 30%; further: 0% is about no effect
Target sequence (Q8NER1 whole entry, looked up): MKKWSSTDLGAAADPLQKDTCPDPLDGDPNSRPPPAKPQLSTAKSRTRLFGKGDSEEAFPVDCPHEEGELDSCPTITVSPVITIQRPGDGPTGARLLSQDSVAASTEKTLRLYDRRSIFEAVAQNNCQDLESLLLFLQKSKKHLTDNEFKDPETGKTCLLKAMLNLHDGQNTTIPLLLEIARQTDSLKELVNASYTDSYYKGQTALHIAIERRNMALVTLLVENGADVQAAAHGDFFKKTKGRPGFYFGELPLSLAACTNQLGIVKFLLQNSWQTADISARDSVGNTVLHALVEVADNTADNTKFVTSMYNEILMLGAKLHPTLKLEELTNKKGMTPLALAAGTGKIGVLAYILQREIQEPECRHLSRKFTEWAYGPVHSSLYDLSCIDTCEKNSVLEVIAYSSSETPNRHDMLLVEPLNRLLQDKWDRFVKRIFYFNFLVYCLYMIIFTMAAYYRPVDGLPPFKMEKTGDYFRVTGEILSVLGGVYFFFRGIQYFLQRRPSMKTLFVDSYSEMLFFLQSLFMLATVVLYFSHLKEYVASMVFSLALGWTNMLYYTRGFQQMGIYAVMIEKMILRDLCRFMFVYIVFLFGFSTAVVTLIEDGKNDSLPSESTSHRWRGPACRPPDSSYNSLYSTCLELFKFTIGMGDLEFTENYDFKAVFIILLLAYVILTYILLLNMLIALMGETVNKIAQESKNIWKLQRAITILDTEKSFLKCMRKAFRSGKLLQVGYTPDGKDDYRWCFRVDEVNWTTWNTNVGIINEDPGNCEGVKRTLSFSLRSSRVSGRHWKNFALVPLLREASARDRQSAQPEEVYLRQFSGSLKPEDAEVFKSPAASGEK
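Cells expressing TRPV1 were dye-loaded with Fluo-8 and read kinetically: 10 s baseline, 3 min after compound (agonist portion), then 2 min after EC20 capsaicin (allosteric enhancer portion). Calcium-bound dye fluorescence at 480/520 nm.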
gsp antag = gsp mutant antagonism; gsp-mutant cells, cAMP HTRF, 30 min; control for the full effect not named in the record; Potency, µM (titrated, usually from 76.9 µM), for the others: top-dose activity change, negative = inhibition, most hits filed as inhibitors; actives 0.4% (n = 340,000); active = falling curve of any shape with a large fitted effect; inconclusive = falling curve, mostly with a smaller effect; inactive = flat or rising curve; cell line not stated here;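 further: intracellular cAMP measured with PDE inhibitor Ro 20-1724 present during compound exposure; potency means the concentration at half of the fitted maximal effect; on the % scale 0 is the no-effect control and ±100 the full control effect; nearly all actives have a fitted effect of over 65% in size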
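HTRF cAMP measurement after 30 min RT detection following 30 min, 37C compound treatment alongside […] (added as 300 uM solution) in G418-selected cells seeded at 2000/well and grown 16–24 h.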
CtBP-E1A blk = blocks the CtBP interaction with E1A; AlphaScreen GST-E1A/His-CtBP binding, 1536-well; hits give low values; control for the full effect not named in the record; activity change, % (concentration not given with the values); actives 0.49% (n = 340,000); in the data active means activity change below about -65%; inconclusive means about -30% to -65%; inactive means above about -30%; further: on the % scale 0 is the no-effect control and ±100 the full control effect
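Homogeneous bead-based format: GST-tagged E1A captured on glutathione donor beads, His-tagged CtBP on nickel acceptor beads; compounds precede bead addition by 2 h at 37 °C.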
An asterisk follows results filed as active; ? = inconclusive; . = not tested or not shown; & = joins results of further samples; [ ] = another dose, or the depositor's remark.

Every second line gives: ClpP mod	Sfp PPTase inh	gsp ag	Menin-MLL FL inh	TRPV1 potentiator	gsp antag	CtBP-E1A blk
COc1ccc(CN2CCC(Oc3cc(C(=O)NC4CC4)ccc3OC)CC2)c(O)c1
    -2.5%	6%	19%	.	27	4%	3
O=C(O)c1ccccc1NC(=O)c1ccccc1Nc1ccccc1
    -0.6%	-3%	-8%	1.8	18	32µM*	.
O=C(CSc1nnc(-c2ccccc2O)o1)Oc1ccc(Br)cc1
    -11%	7%	0%	-1.2	29	-2%	-6
CC1CCN(S(=O)(=O)c2ccc(NC(=O)[C@@H]3CCCN3C(=O)c3cccs3)cc2)CC1
    -0.9%	.	5%	.	3	-12%	-1
O=C(C1CC1)N1CCC(c2nc(-c3ccc(S(=O)(=O)N4CCCC4)cc3)no2)CC1
    -0.8%	14%	7%	-2.0	9	-24%	4
CCC(CC)NC(=O)c1ccc2nc[nH]c2c1
    -1.9%	7%	5%	4.0	9	-8%[15.4 µM]	-8
O=C(OCC(=O)C12CC3CC(CC(C3)C1)C2)c1ccc(O)cc1
    -4.0%	.	-3%	.	.	-20%	.
Cc1ccc(C(=O)/C=C/c2c(C)nn(-c3ccccc3)c2Cl)cc1
    6.3µM*	?	-3%[15.4 µM]	-1.9	2	-13%	-22
Cc1csc(=O)n1CCC(=O)OCC(=O)c1c(N)n(CC(C)C)c(=O)n(C)c1=O
    0.2%	.	16%	.	24	-12%	7
COc1ccc(COC(=O)c2ccc(Cl)c(S(=O)(=O)N3CCOCC3)c2)cc1F
    -1.0%	11%	-28%	.	15	-7%	23
CCOc1ccc(NC(=O)CN(C)C(=O)CCCc2c[nH]c3ccccc23)cc1OCC
    .	.	17%[15.4 µM]	.	10	-6%	?
O=C(COc1cccc(Cl)c1)Nc1ccccc1N1CCCCC1
    -16%	.	1%	.	-10	0%	3
COc1ccc(CCNC(=O)/C=C/c2ccco2)cc1
    -1.2%	-61%	-15%	2.4	-4	1%	5
CC1(C(=O)N(c2ccccc2)C(C(=O)NC2CCCC2)c2ccccn2)CC(=O)N=C2C=CC=CN21 (stereo not drawn)
    -5.2%	2%	18%	2.2	0	13%	1
O=C(CSc1ccc(Cl)cc1)N1CCN(c2ccc([N+](=O)[O-])cc2Cl)CC1
    0.3%	6%	-32%[inhibitor]	-0.1	0	-14%	-21
Cc1ccc(NC(=S)N/N=C/c2ccc([N+](=O)[O-])s2)cc1
    -0.8%	-22%	25%[15.4 µM]	7.9	8	-24%	?
CC(=O)N1N=C(N)SC1(C)C
    .	4%	16%[15.4 µM]	5.9	-10	.	-20
CC(C)(C)NC(=O)C(c1ccc(F)cc1)N(CC1CCCO1)C(=O)c1csnn1 (stereo not drawn)
    -1.1%	4%	-39%	.	-6	0%	3
COc1ccc(CCOC(=O)c2ccc(NC(=O)CC#N)cc2)cc1
    -9.4%	-11%	11%	.	-5	-9%	0
CC(C)(C)C1CCc2onc(C(=O)Nc3ccc4c(c3)OCO4)c2C1 (stereo not drawn)
    .	14%	-2%[15.4 µM]	-1.0	-9	2%	-10
Cc1cc(Cl)c(C)c(S(=O)(=O)Oc2ccccc2NC(=O)CCC(=O)O)c1Cl
    -3.4%	.	?	.	10	-4%	-10
CNC(=O)NCCN1CCCC1=O
    1.6%	0%	21%	4.3	17	-7%	4
COc1cc(C)nc(OCCNC(=O)COc2ccc(Cl)cc2C)n1
    ?	5%	?	0.1	-4	-1%	-2
C=C(C)CSc1nnc(-c2cc(OC)c(OC)c(OC)c2)n1N
    -0.3%	9%	-14%	4.4	0	3%	5
O=c1c2ccccc2oc2c1oc1ccccc12
    -11%	.	.	.	.	0%	-15
Cc1cccc(Oc2nc3c(c(=O)n(C)c(=O)n3C)n2C)c1
    -4.5%	16%	-20%	-0.9	22	-1%	0
CCCOC(c1ccccc1)(c1ccc(C(F)(F)F)cc1)C(Oc1nc(C)cc(C)n1)C(=O)O (stereo not drawn)
    1.2%	19%	10%	-3.3	-7	-10%	.
CC(C)CN1C(=O)C(=O)N(CC(=O)NC2CCCc3ccccc32)C1=O (stereo not drawn)
    0.3%	-1%	-6%	-5.1	5	10%	1
O=C(COc1ccccc1)Nc1ccc(S(=O)(=O)N2CCCCCC2)cc1
    -1.5%	17%	-27%	4.1	-2	-12%	1
CCc1cn(C2CC(O)C(CO)O2)c(=O)[nH]c1=O (stereo not drawn)
    0.3%	.	-40%[inhibitor]	.	7	11%	5
C=CCOC(=O)CCP(=O)(CCC(=O)OCC=C)c1ccccc1
    -0.5%	10%	0%	-0.8	-2	8%	-1
COc1ccc(Cn2ccnc2SCC(=O)Nc2nnc(C)s2)cc1
    -0.1%&-0.7%	-2%	-25%	1.1	1	1%	0
COc1ccccc1NS(=O)(=O)c1ccc(OC)c([N+](=O)[O-])c1
    .	13%	-7%[15.4 µM]	-4.2	-21	.	-3
CCCCn1c2c(c3ccccc31)CCc1nonc1-2
    ?	?	17%	?	10	-13%	7
Clc1ccc(CN2CCSCC2)c(Cl)c1
    -0.3%	-13%	-16%[15.4 µM]	-4.9	-3	8%	2
Cc1cccc(C)c1NC(=O)CNCC(=O)N(C)C
    .	12%	5%[15.4 µM]	-1.1	-9	8%	8
O=C(Nc1cccc(C(=O)N2CCOCC2)c1)NC1CCCCC1
    0.7%	8%	?	3.3	1	-7%	-4
CC(C)c1cc(C(=O)N/N=C/c2cccnc2)cs1
    -2.6%	19%	10%	5.6	-14	7%	3
N#CC1CN(Cc2ccccc2)CN(Cc2ccccc2)C1
    .	12%	-1%[15.4 µM]	0.1	-6	4%	6
O=C1c2ccccc2C(=O)N1CCN1CCc2ccccc21
    -0.7%	9%	-9%	0.4	-17	-10%	-6
CC(OCCN(C)C)C(=O)C12CC3CC(CC(C3)C1)C2 (stereo not drawn)
    -1.4%	20%	6%	4.0	0	-5%	.
COc1cc(C(C)=O)ccc1OCC(O)CNCC(O)c1ccccc1 (stereo not drawn)
    -6.5%	-23%	?	-2.9	7	15%	3
CCN(CC(=O)Nc1ccccc1C(F)(F)F)C(=O)c1ccc2c(c1)NC(=O)C(C)S2 (stereo not drawn)
    2.1%	.	-13%	.	.	.	5
COC(=O)c1ccc(Sc2ccccn2)c([N+](=O)[O-])c1
    -1.9%	0%	-74%[inhibitor]	-4.3	19	8%	-1
CCOCCCn1c(SCC(=O)Nc2ccccc2)nc2ccccc2c1=O
    -1.4%	8%	3%[15.4 µM]	0.1	-13	-3%	3
CC(C)CN1C(=O)C(NC(=O)C2CC2)(C(F)(F)F)C2=C1CC(C)(C)CC2=O (stereo not drawn)
    -2.1%	7%	-1%	3.2	-5	8%	-5
CSc1nc(Oc2ccc(Cl)cc2)c2sccc2n1
    -1.6%	15%	-7%	4.1	0	3%	7
CCc1nnc(NC(=O)c2oc3cc(C)c(C)cc3c2C)s1
    1.1%	12%	-21%	3.8	9	-1%	-5
O=C(NCc1ccccn1)c1cc(S(=O)(=O)N2CCCCC2)ccc1Cl
    -0.3%	.	-30%[inhibitor]	.	6	4%	2
Cc1ccc(Cl)cc1N1CCN(S(=O)(=O)c2c(C)[nH]c(C)c2C(=O)N2CCCC2)CC1
    -0.1%	0%	0%	.	-3	?	-8
COc1ccccc1N(CC(=O)N1CCCC1)S(=O)(=O)c1ccc(C)cc1
    .	20%	5%[15.4 µM]	-1.6	12	2%	2
CCc1ccc(C(=O)NNC(=O)C2CC(=O)N(Cc3ccccc3)C2)cc1 (stereo not drawn)
    .	.	-24%[15.4 µM]	.	-4	2%	-1
O=C(Nc1ccsn1)c1ccc(Cl)cc1Cl
    -1.6%	?	17%	8.0	23	-10%	.
CC(C)c1cc(C(=O)N2CCCC(Nc3ccc(F)cc3)C2)nc(N)n1 (stereo not drawn)
    -8.0%	0%	-7%	.	-16	4%	3
COc1ccc(C)c2sc(N(CCN(C)C)C(=O)c3ccc(S(=O)(=O)N(C)c4ccccc4)cc3)nc12
    -0.6%	.	-68%[inhibitor]	.	.	.	-5
O=C(COC(=O)/C=C/c1ccc2ccccc2n1)NNC(=O)c1ccccc1
    -23%	.	?	.	.	.	-1
Cc1ccc(-c2ccc(SCC(=O)Nc3ccc4c(c3)OCCO4)nn2)cc1
    -1.5%	7%	-7%	0.8	-11	-12%	-11
C=CCNC(=O)/C(C#N)=C/c1c(N2CCN(c3ccc(OC)cc3)CC2)nc2c(C)cccn2c1=O
    -4.0%	12%	-2%	-0.1	-5	-25%	.
CCC1Sc2ccccc2N(CC(=O)NC2CCCC2)C1=O (stereo not drawn)
    -1.9%	7%	-37%	2.7	-16	-7%	-13
Cc1nc([N+](=O)[O-])c(Br)n1CC(=O)c1cccc([N+](=O)[O-])c1
    .	7%	-4%	6.4	27	?	8

More records
Every second line gives: ClpP mod	Sfp PPTase inh	gsp ag	Menin-MLL FL inh	TRPV1 potentiator	gsp antag	CtBP-E1A blk
COc1ccc(CC(=O)NNS(=O)(=O)c2ccccc2)cc1OC
    .	8%	-16%[15.4 µM]	-2.6	1	8%	-1
O=S(=O)(c1cc(-c2nc3ccccc3s2)ccc1Cl)N1CCOCC1
    .	19%	.	4.3	-1	.	.
O=S(Cc1ccc(Cl)cc1)CC(O)COc1ccc(Cl)cc1 (stereo not drawn)
    0.6%	14%	25%	4.3	-1	5%	4
COc1ccc(N(C)C(=O)C2CCN(S(=O)(=O)c3cccc4nonc34)CC2)cc1
    .	7%	-38%[inhibitor]	-1.3	-1	2%	-2
CCOC(=O)N1CCc2c(sc3ncn(C)c(=O)c23)C1
    .	17%	20%[15.4 µM]	5.7	-25	20%	-1
N#CC1(NC(=O)COc2cc(F)ccc2[N+](=O)[O-])CCCCC1
    ?	.	-6%	.	-6	2%	-2
O=[N+]([O-])c1ccc(NCCN2CCOCC2)c([N+](=O)[O-])c1
    -1.4%	4%	8%	1.4	1	-9%	-13
CN(CCc1ccccn1)c1ccccc1
    .	.	6%	.	.	-2%	-14
COc1ccc(Cl)cc1C=CC=Nc1ccc(S(N)(=O)=O)cc1
    -14%	.	-1%	.	.	1%	-10
CC(C)(C)CNC(=O)[C@]1(C)CCC[C@@]2(C)C3CC[C@@]4(C)C[C@]3(CCC21)CC4=O (stereo partly drawn)
    2.5%	.	.	.	-19	-10%	6

Random draw from the library; 5.3% or so of the library scored in one or more.
